Screening data from PubChem.
PAFAH1B3 FP inh: inhibitors of human PAFAH1B3; Q15102; recombinant PAFAH1B3, FP-rhodamine probe, fluorescence polarization; inhibition, % at 3.39 µM; 340,000 compounds, 0.28% hits;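 active means inhibition above the screen-wide average of all tested compounds plus 3 SD, cut at about 25% in these data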;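 further: 0% = enzyme with DMSO only and 100% = wells lacking PAFAH1B3 protein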
PREPL inhibitor: inhibitors of human prolyl oligopeptidase-like enzyme PREPL | Q4J6C6 | recombinant PREPL, fluorescence polarization activity-based probe | inhibition, % at 5.96 µM | 320,000 compounds, 0.68% hits; in the data active means inhibition above about 43%;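 further: 0% = enzyme with DMSO and 100% = wells lacking enzyme; many of its hits are not listed in these tables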
GSTO1 counter: GSTO1 inhibition, counter-screen for RBBP9 inhibitors; P78417; recombinant GSTO1, activity-based probe fluorescence polarization; inhibition, % at 5.96 µM; 300,000 compounds, 1.1% hits;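 active means inhibition above the campaign mean inhibition plus 3 SD, cut at about 35% in these data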;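 further: 0% = GSTO1-1 with DMSO and 100% = wells lacking GSTO1-1 enzyme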
PAD4 inh: inhibitors of human PAD4. AID 485272. inhibition, % at 6.36 µM. 330,000 compounds, 0.41% hits. Q9UM07. recombinant PAD4, RCA probe fluorescence polarization;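 active means percent inhibition above a cutoff equal to the mean of all tested compounds plus 3 SD, cut at about 15% in these data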;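 further: 0% = PAD4 with RCA probe and DMSO and 100% = probe without PAD4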
Target sequence (Q9UM07 whole entry, looked up): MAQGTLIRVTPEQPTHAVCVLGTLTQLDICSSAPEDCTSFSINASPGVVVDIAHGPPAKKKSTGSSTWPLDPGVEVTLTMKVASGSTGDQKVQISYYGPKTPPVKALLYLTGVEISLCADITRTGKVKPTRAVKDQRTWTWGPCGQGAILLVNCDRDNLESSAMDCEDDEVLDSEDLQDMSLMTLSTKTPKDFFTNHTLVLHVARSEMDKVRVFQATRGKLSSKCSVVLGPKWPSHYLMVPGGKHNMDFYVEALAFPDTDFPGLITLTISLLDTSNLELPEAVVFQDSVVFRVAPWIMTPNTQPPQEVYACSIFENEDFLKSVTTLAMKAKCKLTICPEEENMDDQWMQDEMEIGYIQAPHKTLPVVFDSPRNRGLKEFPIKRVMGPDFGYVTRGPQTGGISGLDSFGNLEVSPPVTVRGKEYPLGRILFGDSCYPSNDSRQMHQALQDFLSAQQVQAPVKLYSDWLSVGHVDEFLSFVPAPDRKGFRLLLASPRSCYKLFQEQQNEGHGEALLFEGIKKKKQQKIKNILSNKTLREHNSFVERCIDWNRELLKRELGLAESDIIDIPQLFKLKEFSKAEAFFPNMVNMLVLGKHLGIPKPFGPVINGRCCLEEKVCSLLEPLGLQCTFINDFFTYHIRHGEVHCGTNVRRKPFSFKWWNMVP
ZTA counter: blocks Epstein-Barr virus ZTA, an EBNA-1 counter-screen. ZTA-DNA binding, fluorescence polarization. inhibition, % at 11 µM. 320,000 compounds, 0.15% hits; in the data active means inhibition above about 33%
An asterisk follows results filed as active; . = not tested or not shown; & = joins results of further samples. Not all compounds are listed; count on the stated rates, not on these rows.

SMILES	PAFAH1B3 FP inh	PREPL inhibitor	GSTO1 counter	PAD4 inh	ZTA counter
CN/C(=C\[N+](=O)[O-])NCCSCc1ccc(CN(C)C)o1	8	-7	1	-4	-1
Cc1cn(Cc2ccccc2)c(=O)[nH]c1=O	5	6	4	0	-3
C[N+]1(C)CCC(OC(=O)C(O)(c2ccccc2)C2CCCC2)C1 (stereo unspecified)	-1	12	2	-6	7
Cc1ccc(C(=O)NCC(=O)NCC(=O)OCc2ccc(Oc3ccc([N+](=O)[O-])cc3)cc2)cc1	7	-58	1	4	-11
COc1ccc(/C=C2\S/C(=N/S(=O)(=O)c3cccs3)NC2=O)cc1	2	-1	-27	-4	14
CCN(CC)S(=O)(=O)c1ccc(-c2nnc(SCC(=O)N3CCc4ccccc43)o2)cc1	2	4	-3	3	3
O=C(c1ccccc1)N1CCN(Cc2ccccc2)CC1	13	15	0	-1	-3
CC(C)c1cc(=O)n2[nH]c(SCc3ccc(Cl)cc3)nc2n1	9	15	-26	-2	-15
Cc1ccc(C(=O)OCC(=O)NCc2ccco2)s1	2	0	0	-2	-10
CC1CCCCN1C(=O)c1cc(-c2ccc(Cl)c(Cl)c2)on1 (stereo unspecified)	1	3	8	5	9
COc1ccc(C(=O)OCC(=O)Nc2ccc(F)c(F)c2F)cc1OC	9	-5	4	-2	-9
S=c1[nH]nc(-c2ccco2)n1/N=C/c1ccc(Cl)c(Cl)c1	4	17	7	0	-3
Cc1cc2c(=O)oc(-c3ccc(F)cc3)nc2s1	-2	-1	-64	0	2
O=C(COC(=O)CNC(=O)c1ccco1)NCc1ccc(F)cc1	0	-4	3	2	2
O=C(COC(=O)C1=COCCO1)Nc1ccc(F)c(F)c1	-2	3	-4	4	-9
O=C(N1CCOCC1)n1nnc2ccccc21	1	4	2	0	7
COc1ccccc1CCNC(=O)C(=O)NCC1OCCCN1S(=O)(=O)c1ccc(F)cc1C (stereo unspecified)	5	-1	0	4	-7
O=c1nc(SCc2cccc(C(F)(F)F)c2)nc2ccccn12	3	9	5	3	-21
CCc1cc(=O)oc2c3c(cc(OCC(=O)NCCCCCC(=O)O)c12)OC(C)(C)CC3	2	-8	0	-7	-5
CCN(CC)CC(=O)Nc1c(C)cccc1C	4&6&5	-1&11&-7	-1	2&-7&0	8
Cc1cc(=O)n2[nH]c(SCc3ccccc3)nc2n1	8	4	-9	-1	-8
Cc1ccc(/C(=C\CN2CCCC2)c2ccccn2)cc1	-6	-17	-1	-8	2
CC(C)n1c(/C=C/[C@H](O)C[C@H](O)CC(=O)O)c(-c2ccc(F)cc2)c2ccccc21	4	21	.	-2	1
Cc1noc(NS(=O)(=O)c2ccc(N)cc2)c1C	3	7	3	-5	0
O=C(O)COc1ccccc1C=NNc1ccc([N+](=O)[O-])cc1S(=O)(=O)Nc1ccc(Cl)cc1	10	16	.	-3	.

A draw from above in order of molecular weight, smallest number first:
SMILES	PAFAH1B3 FP inh	PREPL inhibitor	GSTO1 counter	PAD4 inh	ZTA counter
Cc1cn(Cc2ccccc2)c(=O)[nH]c1=O	5	6	4	0	-3
O=C(N1CCOCC1)n1nnc2ccccc21	1	4	2	0	7
CCN(CC)CC(=O)Nc1c(C)cccc1C	4&6&5	-1&11&-7	-1	2&-7&0	8
Cc1cc2c(=O)oc(-c3ccc(F)cc3)nc2s1	-2	-1	-64	0	2
Cc1noc(NS(=O)(=O)c2ccc(N)cc2)c1C	3	7	3	-5	0
Cc1ccc(/C(=C\CN2CCCC2)c2ccccn2)cc1	-6	-17	-1	-8	2
O=C(c1ccccc1)N1CCN(Cc2ccccc2)CC1	13	15	0	-1	-3
CN/C(=C\[N+](=O)[O-])NCCSCc1ccc(CN(C)C)o1	8	-7	1	-4	-1
O=C(COC(=O)CNC(=O)c1ccco1)NCc1ccc(F)cc1	0	-4	3	2	2
O=c1nc(SCc2cccc(C(F)(F)F)c2)nc2ccccn12	3	9	5	3	-21
CC1CCCCN1C(=O)c1cc(-c2ccc(Cl)c(Cl)c2)on1 (stereo unspecified)	1	3	8	5	9
CC(C)n1c(/C=C/[C@H](O)C[C@H](O)CC(=O)O)c(-c2ccc(F)cc2)c2ccccc21	4	21	.	-2	1
CCN(CC)S(=O)(=O)c1ccc(-c2nnc(SCC(=O)N3CCc4ccccc43)o2)cc1	2	4	-3	3	3
O=C(O)COc1ccccc1C=NNc1ccc([N+](=O)[O-])cc1S(=O)(=O)Nc1ccc(Cl)cc1	10	16	.	-3	.
